Screening data from PubChem.
FGF22 binding = FGF22 (human) thermal shift binding; recombinant FGF22 thermal shift, SYPRO orange fluorescence; percent of sucrose octasulfate shift, DMSO zero; calls only at 9.99 µM; actives 1.5% (n = 340,000);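 active = melting point raised past a set limit in the mean and every replicate; inconclusive = no clear call; three in four hits are not shown here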
Target sequence (Q9HCT0 whole entry, looked up): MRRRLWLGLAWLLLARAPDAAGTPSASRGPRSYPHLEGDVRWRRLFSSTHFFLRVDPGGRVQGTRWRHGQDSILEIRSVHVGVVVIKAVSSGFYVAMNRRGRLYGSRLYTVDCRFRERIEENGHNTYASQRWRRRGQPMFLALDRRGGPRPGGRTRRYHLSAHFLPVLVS
RanGTP-Impb inh = inhibitors of RanGTP-importin-beta interaction, primary screen, biochemical, FRET, CFP-Ran, YFP-importin-beta, homogeneous. cell-free CFP-Ran/YFP-importin-beta FRET ratio. inhibition, % (concentration not given with the values). actives 1.1% (n = 300,000). AID 2216;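 active = most replicates above 15%; inconclusive = exactly half above 15%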;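 also: 0% = DMSO wells and 100% = Ran loaded with GDP instead of GTP; wells of about 40 µL received 100 nL stock; the first replicate is given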
Vif A3G = inhibitors of Vif binding to APOBEC3G peptide, primary screen, biochemical, TR-FRET, GST-Vif 1-94, biotin-A3G peptide, dose response retest (AID 1117319) | TR-FRET GST-Vif / biotin-A3G peptide binding; higher % means a stronger effect; test concentration not given here; strong numbers were not always called active | one-dose inhibition, %; IC50 in µM for titrated hits | actives 0.57% (n = 260,000);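 active = above the screen mean plus three standard deviations and confirmed in dose response; inconclusive = results disagree or hit not tested in dose response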;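 also: Vif residues 1-94 fused to GST binding biotinylated APOBEC3G peptide 110-148; 0% = full assay without inhibitor and 100% = GST in place of GST-Vif; retest series ran down from 100 µM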
Ecoli growth = blocks Escherichia coli growth. OD600, 23 h; active compounds read low. OD600 absorbance (concentration not given with the values). actives 0.21% (n = 330,000). AID 1053175;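 active = OD600 absorbance below the run mean of sample wells minus 3.6 SD, in any replicate, cut at about 0.56 in these data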;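 also: stock transfer was 300 nL into about 60 µL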
AF4-AF9 inh = MLL-AF4/AF9 protein interaction inhibition; P42568; AlphaScreen, biotin-AF4 peptide binding to FLAG-AF9; inhibition, % at 10 µM; actives 0.47% (n = 350,000); AID 651704;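 active = every replicate reaching a set inhibition limit, whatever the replicate mean, cut at about 25% in these data; inconclusive = mean inhibition reaches that limit but some replicates miss it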;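 also: 0% = plate neutral control median and 100% = total signal loss; the record names both 10 and 1 µM as test concentration; the first replicate is given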
HNF4A DNA FP = change in binding of human HNF4 alpha to DNA; HNF4a-FITC DNA binding, fluorescence polarization, 1 h; actives 0.3% (n = 360,000); P41235; activity change, % at 10 µM; AID 1224865; in the data active = activity change above about 30%, passing the limit was not always enough;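 also: controls were the assay level and a saturating level of protein; the project sought stronger binding though the title names inhibitors; some compounds called inactive have numbers as strong as hits; positive values seem to mean higher polarization but the record does not say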
Target sequence (P41235 whole entry, looked up): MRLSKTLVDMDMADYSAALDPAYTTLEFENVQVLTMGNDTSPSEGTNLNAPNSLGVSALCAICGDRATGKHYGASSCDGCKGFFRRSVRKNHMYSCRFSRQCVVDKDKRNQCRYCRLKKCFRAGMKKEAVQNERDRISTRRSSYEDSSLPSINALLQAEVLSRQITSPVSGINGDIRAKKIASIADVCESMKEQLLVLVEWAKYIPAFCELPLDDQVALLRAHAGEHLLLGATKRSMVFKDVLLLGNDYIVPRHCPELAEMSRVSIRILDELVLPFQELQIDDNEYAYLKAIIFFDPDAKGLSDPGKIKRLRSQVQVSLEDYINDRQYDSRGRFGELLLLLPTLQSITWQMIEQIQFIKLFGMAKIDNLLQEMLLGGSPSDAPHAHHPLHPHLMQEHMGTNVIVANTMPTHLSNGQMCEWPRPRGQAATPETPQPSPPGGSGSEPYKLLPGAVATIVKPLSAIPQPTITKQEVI
UCH37 inh = human UCH37 deubiquitinating enzyme inhibition; Q9Y5K5; purified proteasome/UCH37, Ub-AMC cleavage fluorescence; inhibition, % (concentration not given with the values); actives 0.33% (n = 330,000);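 active = mean of two replicates above 20%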;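 also: 0% = compound-free wells with enzyme and 100% = wells lacking proteasome; stock transfer was 100 nL into about 20 µL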
Target sequence (Q9Y5K5 whole entry, looked up): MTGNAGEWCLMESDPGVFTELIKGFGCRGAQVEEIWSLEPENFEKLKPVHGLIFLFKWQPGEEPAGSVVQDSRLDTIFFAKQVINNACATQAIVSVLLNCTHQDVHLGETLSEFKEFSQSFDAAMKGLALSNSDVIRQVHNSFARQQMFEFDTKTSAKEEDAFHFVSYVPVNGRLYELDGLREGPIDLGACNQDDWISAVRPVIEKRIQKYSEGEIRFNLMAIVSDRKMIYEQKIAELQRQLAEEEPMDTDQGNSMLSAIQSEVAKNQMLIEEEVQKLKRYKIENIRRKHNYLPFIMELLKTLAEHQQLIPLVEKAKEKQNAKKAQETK
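assay system = human UCH37 enzyme supplied as purified proteasome complex | amount = proteasome at 0.15 nM in the dispensed enzyme solution | schedule = 30 min compound-proteasome preincubation then 25 min substrate reaction, room temperature | measured by = fluorescence, ex 355 nm, em 460 nm | benchmarks = no-proteasome wells (full inhibition) and compound-free wells (no inhibition)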
The depositor's hits bear a star; i = inactive; u = inconclusive; x = no result given; & = joins results of further samples. The list is partial; count on the stated rates, not on these rows.

SMILES	FGF22 binding	RanGTP-Impb inh	Vif A3G	Ecoli growth	AF4-AF9 inh	HNF4A DNA FP	UCH37 inh
COc1ccc(C2Nc3ccccc3C(=O)N2NS(=O)(=O)c2ccc(C)cc2)cc1 (centres undefined)	i	0.3	u	0.71	-3.7	-7.6	-49
COc1cc(Cn2c3ccc(NC(=O)CC(C)c4ccccc4)cc3c(=O)n2C)ccc1F (centres undefined)	i	x	x	x	-2.9	-1.5	x
CC(=O)NCCOc1ccc(C(=O)O)cc1	x	1.9	-5%	0.81	x	-0.5	2.0
O=C(NNCc1ccccc1)c1ccccn1	i	x	-1%	0.71	-1.4	4.2	4.2
CCOc1ccc(CCNC(=O)COC(=O)c2ccc(S(=O)(=O)N3CCCC3)cc2)cc1OCC	i	0.8	7%	0.68	9.0	3.2	1.2
Cn1c(=O)c2c(nc(SCCN3CCOCC3)n2Cc2ccc(F)cc2)n(C)c1=O	x	-1.4	18%	0.68	x	-1.4	-0.2
COCCCNC(=O)c1c(F)c(F)c(F)c(F)c1F	x	3.9	4%	0.67	x	-0.5	5.2
O=C(Nc1ccc(Cl)cc1)Nc1ccccc1NS(=O)(=O)c1cccs1	i	0.6	20%	0.67	-1.8	3.8	4.9
CCOC(=O)c1c(NC(=O)/C=C\C(=O)O)sc(C)c1-c1ccccc1	x	2.0	9%	x	-1.1	-7.8	7.5
CCC1CCCCN1C(=O)c1ccc2nc(Cc3ccc(OC)cc3)oc2c1 (centres undefined)	i	u	x	0.66	-21	0.6	0.5
CN(Cc1ccc(Cl)cc1)C(=O)CNC(=O)C12CC3CC(CC(C3)C1)C2	i	x	7%	0.63	0.1	1.5	3.3
CCCCC(c1nnnn1CS(=O)(=O)c1ccc(C)cc1)N1CCC(C(N)=O)CC1 (centres undefined)	i	1.6	x	0.64	-1.4	-4.3	0.7
O=C(N/N=C/c1c(O)n(Cc2ccco2)c(=O)[nH]c1=O)c1ccccc1	i	-1.4	u	0.62	2.5	-2.2	-6.8
COc1ccc(NC(=O)Cn2cnc3sc(C)c(S(=O)(=O)N4CCOCC4)c3c2=O)cc1Cl	i	-7.5	-11%	0.7	1.9	-2.9	5.8
c1ccc(N(c2ccccc2)c2nc(-n3ccnc3)nc(-n3ccnc3)n2)cc1	x	-2.4	-3%&-4%	0.72	x	0.2	2.0
CC(Sc1n[nH]c(-c2ccccc2)n1)C(=O)c1c(N)n(C)c(=O)n(C)c1=O (centres undefined)	i	6.1	-1%	0.61	0.6	3.4	1.1
COc1ccc(O)c(/C=C(\C#N)C(=O)Nc2cccnc2)c1	i	3.8	x	0.72	2.5	-0.6	-83
Cc1cccc(NS(=O)(=O)c2ccc(NC(=O)CN(c3cc([N+](=O)[O-])ccc3C)S(C)(=O)=O)cc2)c1	i	2.0	x	x	4.2	3.0	x
Cc1cc(F)ccc1S(=O)(=O)Nc1ccc(O)c(Sc2ncn[nH]2)c1	i	-4.6	x	0.66	7.6	-3.7	4.1
O=S(=O)(c1ccccc1)N1N=C(c2cccs2)CC1c1ccc(F)cc1 (centres undefined)	x	0.9	9%	0.72	x	3.3	2.0
CCCCN(C(=O)c1cc(=O)[nH]c2ccccc12)c1c(N)n(CCC)c(=O)[nH]c1=O	x	4.8	10%	0.67	x	x	3.7
CCOc1ccc(C(=O)CCC(=O)N2CCN(c3ccccc3O)CC2)cc1	i	x	x	0.72	-0.2	6.0	0.4
O=C(N/N=C/c1ccco1)c1cc(C2CC2)nc2ccccc12	i	2.1	6%	x	-3.0	x	x
Fc1cccc(NC(=S)Nc2cccnc2)c1	i	1.0	-6%	0.63	-6.1	1.8	0.2
CC(C)OCCCNC(=O)CNC(=O)c1ccc(Cl)c(Cl)c1	i	u	x	0.64	0.5	-1.4	-1.4
Cc1ccc(S(=O)(=O)NCC(=O)N2CCOCC2)cc1	i	4.1	0%	0.73	-6.9	0.2	2.4
COc1ccc(NS(=O)(=O)c2cccc(C(=O)NCC3(N(C)C)CCCCC3)c2)cc1	i	-0.1	3%	0.67	3.8	2.2	2.9
CCCCCCCCn1cc(C(C)=O)c(=O)[nH]c1=O	x	-20	-9%	0.72	x	0.6	2.0
O=C(Nc1ccc2c(c1)OCCO2)C1c2ccccc2OCC(=O)N1Cc1ccccn1 (centres undefined)	i	x	x	x	3.7	-1.6	x
CCCCN(CC)CCCNC(=O)CC1Oc2ccccc2NC1=O (centres undefined)	i	1.3	-2%	0.71	1.0	-1.1	1.6
COCCCNC(=O)c1c[nH]c2ccc(S(=O)(=O)N(C)c3ccccc3C)cc2c1=O	i	-2.3	x	0.69	-7.9	2.2	-13
O=C1/C(=C\c2ccco2)NC(=S)N1c1ccccc1	i	-0.3	16µM*	0.68	12	11	6.0
O=C1CC(c2ccc(S(=O)(=O)NCc3ccncc3)cc2)CN1 (centres undefined)	i	2.0	-5%	0.73	-3.4	-3.4	3.8
Oc1ccc2ccccc2c1CNc1cnc2ccccc2c1	x	2.6	23%	0.64	x	-1.4	-143
N/C(=N\OC(=O)c1ccco1)c1ccc(Cl)cc1	i	8.0	3%	0.67	-2.7	4.2	-0.8
Cc1ccc(NC(=O)C(C)c2ccc([N+](=O)[O-])cc2)cc1Cl (centres undefined)	i	4.7	x	0.63	0.5	-1.1	1.6
Cc1cc(NC(=O)CS(=O)(=O)c2cn(Cc3ccc(F)cc3)c3ccccc23)no1	i	2.7	0%	0.66	-1.4	0.1	4.2
O=C(c1cccc(S(=O)(=O)N2CCCCCC2)c1)N1CCN(Cc2ccccc2)CC1	i	x	x	0.71	0.6	2.3	0.1
COc1ccc(NC(=O)COC(=O)Cc2cccs2)cc1OC	x	1.3	-2%	0.64	0.5	-0.3	1.7
CC1=CC(C)(C)N(C(=O)Nc2ccccc2)c2ccccc21	i	7.3	x	0.69	2.4	1.8	-16
COc1ccc(CNC(=O)CN2C(=O)NC(c3ccccc3)(c3ccccc3)C2=O)cc1OC	i	x	x	0.68	1.3	4.8	1.9
Fc1ccc(-c2cc(C(F)(F)F)nc(N3CCCCC3)n2)cc1	x	-1.7	5%	0.72	x	-2.5	-41
CCc1nc2ccccc2n1CC(C)C(=O)O (centres undefined)	x	5.6	2%	0.7	x	-1.3	0.9
COc1cc(NC(=S)N2CCCC2)cc(OC)c1	i	x	x	0.69	-0.8	2.1	3.1
CN1c2ccccc2Oc2nnc(Cl)cc21	i	11	-5%	0.65	0.8	-2.5	-303
N#Cc1ccc(CN2CCN(C(=O)c3cccc(S(=O)(=O)N4CCCCCC4)c3)CC2)cc1	i	x	x	0.71	-0.2	-1.0	1.5
COC(=O)c1ccc(COC(=O)C2CCN(S(=O)(=O)c3c(C)cc(C)cc3C)CC2)o1	i	x	-8%	x	-0.5	-3.1	x
O=C(Nc1ccccc1)Nc1nnc(-c2ccccc2)o1	x	-5.1	1%	0.66	x	1.0	3.1
Cc1cc(F)ccc1S(=O)(=O)Nc1ccccc1C(=O)Nc1ccc2[nH]c(=O)[nH]c2c1	x	2.3	78µM*	0.76	x	-1.3	2.4
CN(C)/C=C/c1[nH]c(=O)[nH]c(=O)c1[N+](=O)[O-]	i	5.0	29%	x	-4.9	1.6	x
(listing goes on)
SMILES	FGF22 binding	RanGTP-Impb inh	Vif A3G	Ecoli growth	AF4-AF9 inh	HNF4A DNA FP	UCH37 inh
CC(=O)N1CCN(CC(O)COc2ccc(S(=O)(=O)N3CCOCC3)cc2)CC1 (centres undefined)	i	x	1%	0.71	-0.3	1.3	4.8
Cc1cc2oc(=O)cc(-c3cc4ccccc4o3)c2cc1O	i	-0.5	x	0.69	0.8	-14	4.7
CCOc1ccc(N(CC(=O)N2CCCC2)S(=O)(=O)c2c(C)noc2C)cc1	i	-0.4	4%	0.77	-0.1	-0.5	2.8
NC(=O)Cc1cn(-c2ncc(C(F)(F)F)cc2Cl)c2ccccc12	x	-5.7	4%	0.72	x	-1.5	2.6
COc1cc(NC(=O)c2cc(-c3ccco3)on2)c(OC)cc1Cl	i	2.7	2%	0.73	6.1	-1.7	-101
CCOc1ccc(CCNC(=O)c2cc3sc(Cl)cc3n2C)cc1OCC	x	2.1	5%	0.75	x	-2.8	1.9
COc1ccc(CNC(=O)C(=O)NCC2OCCN2S(=O)(=O)c2ccc(OC)cc2)cc1 (centres undefined)	i	0.2	-4%	0.73	1.8	-5.6	4.5
Cc1cccc(C)c1NC(=O)COc1ccccc1C(=O)Nc1ccc(Br)cn1	i	1.8	-127%	0.7	-0.7	3.1	-1.5
Cc1cnc(NC(=O)c2cc(S(=O)(=O)N(C)C)ccc2N2CCCC2)s1	i	x	x	0.68	1.2	-3.9	3.7
O=C1CC(Sc2nnnn2-c2ccccc2)C(=O)N1c1cccc(Cl)c1 (centres undefined)	x	-0.3	-4%	0.74	x	2.7	-3.5
CCCCN(C(=O)c1cnc2n(c1=O)CCS2)c1ccccc1	i	-3.9	-2%	0.7	1.3	2.4	3.5
Cc1c(NC(=O)CN2C(=O)NC3(CCCCC3C)C2=O)cccc1[N+](=O)[O-] (centres undefined)	i	x	x	0.66	4.8	1.9	5.8
Cc1cc(N2CCOCC2)n2cc(-c3ccccc3)nc2n1	i	-2.8	x	0.68	-2.4	4.2	-22
O=c1c2c(nc3n1CCCCC3)sc1c(O)c(Br)ccc12	i	-3.8	2%	0.72	6.0	-3.5	3.7
COc1ccc(C2C(C(=O)c3ccc(C)o3)=C(O)C(=O)N2Cc2cccnc2)cc1OC (centres undefined)	i	-0.9	x	x	-5.0	2.5	x
CCn1c(=O)c(C(=O)CN2CCCc3ccccc32)c(N)n(Cc2ccccc2)c1=O	x	-0.4	18%	0.68	x	88	0.5
CCOc1ccc(NC(=S)NNc2ccnc3cc(Cl)ccc23)cc1	i	-4.1	8%	0.7	-0.1	4.2	1.7
CCS(=O)(=O)N1CCC(C(=O)Nc2cccc(C(C)=O)c2)CC1	x	-2.6	8%	0.71	x	0.8	2.5
CC(C)(C)C(=O)Cn1c(NCCO)nc2ccccc21	x	-1.8	2%	0.71	x	-1.8	-2.2
CN1CCN(CCC(=O)N/N=C/C=C2\N(C)c3ccccc3C2(C)C)CC1	i	0.1	x	x	2.5	11	x
CC(C)Cn1cnc2c(SCCc3ccccc3)nc(N)nc21	i	x	-2%	0.69	3.8	-0.3	-7.8
O=C(CC[C@H]1O[C@@H](n2ccc(=O)[nH]c2=O)[C@H](O)[C@@H]1O)N[C@H](Cc1ccccc1)C(=O)NCc1cccs1	i	x	x	x	0.0	3.9	x
CCCC(=O)Nc1sc(C)c(C)c1C(=O)Nc1cccc(C)c1	i	3.7	1%	0.67	-2.0	-3.0	2.4
O=C(CCNS(=O)(=O)c1cccc2nsnc12)NCc1ccccc1	i	-5.9	x	0.68	1.0	-1.0	4.3

Of the compounds above, these have a CF3 group.
SMILES	FGF22 binding	RanGTP-Impb inh	Vif A3G	Ecoli growth	AF4-AF9 inh	HNF4A DNA FP	UCH37 inh
Fc1ccc(-c2cc(C(F)(F)F)nc(N3CCCCC3)n2)cc1	x	-1.7	5%	0.72	x	-2.5	-41
NC(=O)Cc1cn(-c2ncc(C(F)(F)F)cc2Cl)c2ccccc12	x	-5.7	4%	0.72	x	-1.5	2.6

Profiles, looked up by structure. Order of screens: FGF22 binding	RanGTP-Impb inh	Vif A3G	Ecoli growth	AF4-AF9 inh	HNF4A DNA FP	UCH37 inh
Results for O=C(CC[C@H]1O[C@@H](n2ccc(=O)[nH]c2=O)[C@H](O)[C@@H]1O)N[C@H](Cc1ccccc1)C(=O)NCc1cccs1 = i	x	x	x	0.0	3.9	x
Results for O=C(CCNS(=O)(=O)c1cccc2nsnc12)NCc1ccccc1 = i	-5.9	x	0.68	1.0	-1.0	4.3
Results for CCCC(=O)Nc1sc(C)c(C)c1C(=O)Nc1cccc(C)c1 = i	3.7	1%	0.67	-2.0	-3.0	2.4
